High-throughput results from PubChem.
RE007 growth inh – less growth of the S. pombe RE007 Vpr strain; S. pombe RE007 Vpr strain, BacTiter-Glo ATP luminescence, 24 h; control for the full effect not named in the record; Potency, µM (top dose mostly 92.2 µM), inactives show at the top dose activity change, negative = less growth; hit rate 0.21% among 360,000; AID 651644; active = well fitted falling curve with a large enough effect; inconclusive = small, poorly fitted or top-dose-only effect; inactive = no such curve, though single readings can be large or run the other way;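 also: % is scaled to controls: 0 for no effect and ±100 for the full control effect; nearly all actives have a fitted effect of over 50% in size; the assay follows cell death caused by Vpr and the record does not say whether a fall means rescue or toxicity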
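Fission yeast strain RE007, carrying one chromosomally integrated HIV-1 vpr copy, was seeded at OD 0.01 in PMG+AL medium with 23 nL pinned compound. After 24 h at 30 °C and 99% humidity, viability was read by BacTiter-Glo luminescence.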
Cruzain noTriton – cruzain (T. cruzi) inhibition without detergent. purified cruzain, Z-FR-AMC fluorescence, no detergent. hit rate 2.3% among 200,000. Potency, µM, without a hit: max response, negative = inhibition, actives largely listed as inhibitors. P25779;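 also: plate controls were enzyme without inhibitor for no effect and buffer without enzyme for full effect; nearly all actives have a fitted effect of over 40% in size; top concentration of the series not given in the record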
Target sequence (P25779 123-467 limits assumed): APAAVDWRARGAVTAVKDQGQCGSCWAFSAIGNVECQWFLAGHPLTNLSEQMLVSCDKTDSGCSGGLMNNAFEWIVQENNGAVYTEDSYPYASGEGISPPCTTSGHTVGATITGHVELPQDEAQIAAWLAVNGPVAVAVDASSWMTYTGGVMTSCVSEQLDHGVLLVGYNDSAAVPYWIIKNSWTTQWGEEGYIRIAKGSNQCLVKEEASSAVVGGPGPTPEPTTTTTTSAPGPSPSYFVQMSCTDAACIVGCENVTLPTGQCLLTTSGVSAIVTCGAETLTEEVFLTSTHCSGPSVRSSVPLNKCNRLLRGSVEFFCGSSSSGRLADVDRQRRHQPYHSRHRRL
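Detergent-free condition (0.00005% Triton X-100) in acetate buffer pH 5.5 with DTT. 1.5 nM enzyme and compound were pre-mixed 15 min, then 2 uM Z-FR-AMC substrate added; reaction progress from fluorescence change between first and third reads (60 s).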
StopGo reporter – lowers the luciferase signal of an FMDV 2A StopGo reporter. Potency, µM (titrated, usually from 57.9 µM), without a hit: top-dose signal change, negative = less light. AID 1159524. human cells with a luciferase reporter of 2A StopGo recoding; control for the full effect not named in the record. hit rate 1.2% among 410,000; active = well fitted falling curve with a large enough effect; inconclusive = small, poorly fitted or top-dose-only effect; inactive = no such curve, though single readings can be large or run the other way; tested in HEK293T cells; also: % is scaled to controls: 0 for no effect and ±100 for the full control effect; nearly all actives have a fitted effect of over 45% in size; luciferase light after 4 h
SARS PLpro yeast – blocks SARS-CoV papain-like protease in a yeast assay; Potency, µM (titrated, usually from 32.9 µM), without a hit: at the top dose activity, positive = growth rescue; S. cerevisiae expressing SARS-CoV PLpro, growth rescue; control for the full effect not named in the record; AID 485353; hit rate 0.19% among 330,000; active means well fitted rising curve with a large enough effect; inconclusive means small, poorly fitted or top-dose-only effect; inactive means no such curve, though single readings can be large or run the other way; also: 0% is about no effect; nearly all actives have a fitted effect of over 55% in size; growth read by luminescence after 48 h
Cruzain Triton – blocks cruzain activity in presence of Triton detergent | P25779 | purified cruzain, Z-FR-AMC fluorescence, 0.01% Triton | Potency, µM, for inactives: max response, negative = inhibition, actives largely listed as inhibitors | hit rate 0.43% among 200,000 | AID 1478;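 also: plate controls were neutral wells for no effect and buffer without enzyme for full effect; nearly all actives have a fitted effect of over 40% in size; top concentration of the series not given in the record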
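Purified cruzain (1.5 nM final) was preincubated with compounds for 15 min at room temperature in 100 mM sodium acetate pH 5.5, 5 mM DTT, 0.01% Triton X-100. Reaction started with 2 uM Z-FR-AMC; AMC fluorescence change over 60 s gave activity.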
Lassa entry inh – inhibitors of Lassa virus binding or cell entry | Potency, µM (doses to about 37.9 µM), for the others: top-dose activity change, negative = inhibition, usual class: inhibitors | hit rate 1.2% among 300,000 | Lassa virus pseudotype entry inhibition, cell reporter; control for the full effect not named in the record | AID 540256; active means well fitted inhibition curve with a large enough effect; inconclusive means small, poorly fitted or top-dose-only effect, or effect the other way; inactive means flat fitted curve, though single readings scatter; tested in HEK293 cells; also: % is scaled to controls: 0 for no effect and ±100 for the full control effect; nearly all actives have a fitted effect of over 50% in size; luciferase read-out
Marburg entry inh – inhibitors of Marburg virus binding or cell entry. Marburg virus pseudotyped entry inhibition, cell reporter; control for the full effect not named in the record; about a third of the inactives were read at about 46 µM. Potency, µM (titrated, usually from 37.8 µM), inactives show at the top dose activity change, negative = inhibition, most hits filed as inhibitors. hit rate 1.8% among 300,000; active = well fitted inhibition curve with a large enough effect; inconclusive = small, poorly fitted or top-dose-only effect, or effect the other way; inactive = flat fitted curve, though single readings scatter; tested in HEK293 cells; about a fifth of its hits are not listed in these tables; also: % is scaled to controls: 0 for no effect and ±100 for the full control effect; luciferase read-out
NS1 function inh – influenza NS1 inhibition | S. cerevisiae slowed by influenza A NS1, growth recovery by OD600 | Potency, µM (titrated, usually from 46.1 µM), for inactives: at the highest dose activity, positive = more growth | hit rate 0.4% among 270,000; active means well fitted rising curve with a large enough effect; inconclusive means small, poorly fitted or top-dose-only effect; inactive means no such curve, though single readings can be large or run the other way; also: nearly all actives have a fitted effect of over 50% in size
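In this qHTS, NS1 from influenza A is expressed in budding yeast, where it slows growth. Cells are switched from glucose to 2% galactose medium (pH 6.0, -URA), treated with compound, and growth recovery is read at OD600.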
Active calls of the source: *; ? = inconclusive; · = no result given; & = joins results of further samples; [ ] = dose if it differs, or a comment. Unless noted, calls follow the shape of the dose curve; as a rule, active = well fitted curve in the direction sought with a large enough effect; inconclusive = small, poorly fitted or top-dose-only effect, or another doubt; inactive = no such curve, though single readings can be large; an effect the other way counts as inactive or inconclusive. Potency is read from the fitted curve at half-maximal effect. An unsorted share of the library, and some 4.7% of all compounds hit somewhere here.

SMILES	RE007 growth inh	Cruzain noTriton	StopGo reporter	SARS PLpro yeast	Cruzain Triton	Lassa entry inh	Marburg entry inh	NS1 function inh
Cc1ccc(C)c(NC(=O)CCN2C(=O)c3ccccc3Sc3ncccc32)c1	·	16%	-10%	·	-3.2%	13%[46.1 µM]	·	·
Cc1cc(Br)cc2c(C(=O)OCC(=O)c3ccccc3)cc(-c3ccccc3)nc12	·	?	-20%	·	-0.1%	-3%[46.1 µM]	18%[46.1 µM]	·
FC(F)(F)c1ccc(-c2noc(-c3ccccc3Br)n2)cc1	·	1%	?	·	-0.2%	15%[46.1 µM]	·	·
CCN(CC)c1ccc(C=Nc2ccc(C)cc2C)c(O)c1	0%	·	28%	0%	·	8%	-2%[46.1 µM]	0%
COc1ccc(S(=O)(=O)N(CC(=O)Nc2ccccc2Br)Cc2ccccc2)cc1	·	-5%	-20%	·	-5.3%	?	·	·
COc1ccc(C(=O)NNS(=O)(=O)c2ccc(C)cc2)cc1	14%	-9%	-11%	-14%	2.8%	-7%	3%	0%
Cc1cc(NC(=O)CN2C(=O)NC(Cc3ccccc3)C2=O)no1 (stereo not given)	-10%	9%	11%	0%	1.1%	-4%	9%	7%
COc1ccc(C)cc1NC(=O)CNCc1cccs1	4%	·	-7%	-4%	·	·	·	5%
COc1ccc(NC(=O)CC2SC(=NCc3ccccc3OC)NC2=O)cc1 (stereo not given)	-4%	1%	·	0%	2.7%	-4%	2%	3%
Cc1cccc(Cn2ncc(Cl)c(Cl)c2=O)c1	-27%	-2%	?	-19%	-2.7%	?	?	-43%
CCN(CC)S(=O)(=O)c1cc(-c2nnc(Nc3ccc(OC)c(C(N)=O)c3)c3ccccc23)ccc1C	·	?	?	·	-12%	?	·	·
Cc1noc(C)c1COC(=O)c1ccccc1NC(=O)c1ccco1	5%	·	-7%	-7%	·	-19%[46.1 µM]	-28%[46.1 µM]	0%
CCCCOc1ccc(C(=O)N/C(=C\c2cccc([N+](=O)[O-])c2)C(=O)OC(C)C)cc1	-4%	3%	-8%	-4%	3.0%	-16%	7%	6%
COc1ccc(CCNC(=O)C2(c3ccccc3)CC2)cc1	-3%	·	-22%	?	·	-14%[46.1 µM]	?	-14%
Cc1cc(C)c(NS(=O)(=O)c2ccc(NC(=O)/C=C/C(=O)O)cc2)c(C)c1	·	9%	·	5%	-0.1%	15%	22%&22%	20%
COc1ccc(Nc2ncnc3sc(-c4ccccc4)cc23)cc1OC	14%	?	0%	7%	-10%	?	?	12%
Cc1cccc2sc(NNC(=O)c3cc(=O)c4ccccc4o3)nc12	-14%	·	2%	-1%	·	·	·	8%
Cc1cc(NC(=O)Cn2nc([N+](=O)[O-])c(Br)c2C)no1	-12%	·	-15%	1%	·	?	?	3%
COc1ccc(CNC(=O)CC2(CC(=O)O)CCCCC2)cc1	1%	·	-9%	-1%	·	·	·	1%
CSc1nnc2n(-c3ccc(C)cc3)c(=O)c3c4c(sc3n12)COC(C(C)C)C4 (stereo not given)	8%	?	-13%	6%	2.8%	·	·	?
Cc1ccccc1NC(=S)N(Cc1ccco1)C(C)c1cccs1 (stereo not given)	-13%	·	2%	-2%	·	12%	-20%	·
Cc1sc2ncn(CC(=O)NCCCC(=O)N3CCC(C)CC3)c(=O)c2c1C	-1%	·	-6%	-2%	·	?	?	-7%
CCNC(=O)C1=C(O)c2sccc2N(C)S1(=O)=O	-1%	·	5%	3%	·	4%	-8%[46.1 µM]	·
Cc1ccc(CNC(=O)C2CCN(S(=O)(=O)c3ccc4c(c3)CCCN4C(=O)C3CCC3)CC2)cc1	·	14%	?	·	-3.2%	-30%[46.1 µM]	·	·
CC1(C)CC(=O)/C(=C(\O)CCCN2C(=O)c3ccccc3C2=O)C(=NCCO)C1	2%	·	8%	0%	·	-1%	-6%[46.1 µM]	-4%
Oc1ccc2cc(Br)ccc2c1CN1CCCC1	-13%	·	-14%	-3%	·	-26%[46.1 µM]	2%[46.1 µM]	·
Cc1cc(NC(=S)Nc2cccc3ccccc23)n[nH]1	16%	·	5%	-1%	·	10%	?	·
CC(C)(Oc1ccc(Cl)cc1)C(=O)OCn1nnc2ccccc2c1=O	0%	3%	-14%	-32%	-6.3%	·	·	-25%
CC(=O)C1=C(O)C(=O)N(Cc2cccnc2)C1c1ccccc1 (stereo not given)	6%	-8%	·	21%	-2.8%	?	-5%	-1%
Cc1cc(C)c2c(=O)n(CC(=O)Nc3ccc(Cl)cc3)sc2n1	-5%	·	?	-17%	·	?	?	-107%
Cc1cc(OCC(=O)NC2CC2)c2c(C)cc(=O)oc2c1	-6%	·	-3%	2%	·	·	·	2%
O=C(Nc1ccc(N2CCOCC2)cc1)c1ccc([N+](=O)[O-])cc1	-18%	·	19%	2%	·	2%[46.1 µM]	?	·
O=C(CCc1ccccc1)NNC(=S)Nc1ccc(F)cc1	1%	·	-2%	2%	·	-17%	0%	·
CN(C)CCn1c2c(c(SCC(=O)Nc3ccccc3)nc1=O)CCCC2	-9%	·	-3%	0%	·	1%	1%	·
Nc1nc2ccc(N3CCOCC3)cc2s1	-9%	2%	-5%	-1%	4.9%	-23%	?	-2%
COc1ccc(Nc2nc(N)nc(CN3CCN(c4ccccn4)CC3)n2)cc1	18%	-14%	?	·	-7.3%	9%	0%	4%
CC(=O)Nc1ccc(N2C(=O)CC(N3CCSCC3)C2=O)cc1 (stereo not given)	4%	·	?	0%	·	4%	14%	-1%
CCc1ccc(S(=O)(=O)c2nnn3c2nc(N2CCOCC2)c2sccc23)cc1	·	-2%	8%	·	-0.7%	27%[46.1 µM]	·	·
Cc1csc(NC(=O)CSc2nnc(NC(=O)C3CC(=O)N(c4ccccc4)C3)s2)n1 (stereo not given)	3%	-5%	-2%	-7%	-0.9%	17%	-9%	10%
CCCN1CCC[C@@H](c2cccc(O)c2)C1	-5%[18.4 µM]	·	-13%	·	·	14%	?	·
CCN(CC)C(=O)Cn1cc(S(=O)(=O)CC(=O)Nc2cc(OC)ccc2OC)c2ccccc21	-2%	·	-22%	-4%	·	-12%	-1%	-3%
O=S(=O)(ON(c1ccccc1)S(=O)(=O)c1ccccc1)c1ccccc1	·	-5%	-4%	-29%	-5.0%	1%	-43%	-7%
CC(C)NC(=O)CCNC(=O)c1ccc(F)cc1	6%	-12%	-14%	-3%	2.8%	7%	29%	3%
COc1ccc(C2=NNC(=O)C2(C)Br)cc1 (stereo not given)	-7%	·	0%	·	·	0%	-14%	·
O=C(NCC1CCCCC1)c1ccc(=O)[nH]c1	9%	·	-1%	-1%	·	1%[46.1 µM]	15%[46.1 µM]	3%
CCCc1cc(=O)n2[nH]c(NCc3ccccc3OC)nc2n1	·	12%	-23%	·	3.7%	14%[46.1 µM]	?	·
CC(C)CC(=O)NC(=S)Nc1ccc(NC(=O)c2cccs2)cc1	5%	11%	-5%	7%	-2.0%	1%	4%	-6%
Cc1c(C(=O)N2CCCC2)oc2c1-c1nn(CC(=O)NCCCN3CCCCC3C)cc1CC2 (stereo not given)	-4%	·	2%	1%	·	·	·	-4%
O=C(NCC1CCCO1)c1cccs1 (stereo not given)	15%	-7%	10%	6%	4.1%	7%	-10%	-1%
COCc1cc(=O)[nH]c(-c2ccccc2OC(F)(F)F)n1	-4%	·	61%[activator]	0%	·	·	·	-1%
CCc1ccc(N(CC(=O)NC2CCCC2)C(=O)CCC(=O)Nc2ccccn2)cc1	1%	·	2%	3%	·	-2%	3%[46.1 µM]	4%
CCOc1ccc(N2CC(NC(=O)/C=C\c3ccc4c(c3)OCO4)CC2=O)cc1 (stereo not given)	·	-12%	-8%	·	-5.1%	14%[46.1 µM]	·	·
CCCn1c(O)c(N=NC(=O)c2cccnc2)c2cc(Br)ccc21	-17%	·	?	-3%	·	?	3%[46.1 µM]	-31%
Cc1ccc(OCC(=O)Nc2ccc(N3CCN(S(C)(=O)=O)CC3)cc2)cc1	-7%	·	-1%	2%	·	-12%	9%[46.1 µM]	5%
CCOc1cc(C(=O)N/N=C/c2ccsc2)cc(OCC)c1OCC	1%	5%	2%	-3%	-3.3%	?	?	-5%
O=c1c2cn[nH]c2[nH]c(=S)n1-c1ccccc1F	6%	-4%	4%	-7%	3.4%	-36%[14.3 µM]	11%	-7%
COc1ccccc1CNC(=O)CSc1nn2c(=O)c(C(C)(C)C)nnc2s1	3%	·	-3%	13%	·	?	-18%	0%
COc1ccc(NC(=S)N(Cc2ccc(N(C)C)cc2)Cc2ccco2)cc1	-6%	-12%	26%	-24%	-0.6%	?	9%	10%
CC(C)c1nc2ccc(C(=O)NCCCN3CCN(c4ccccc4)CC3)cc2o1	·	17%	-44%	·	6.5%	-17%[46.1 µM]	·	·
Cc1cc(/C=N/n2c(COc3ccccc3C)nc3ccccc3c2=O)c(O)c([N+](=O)[O-])c1	-1%	?	15%	3.5µM*	-13%	·	1%	?

(further entries)
SMILES	RE007 growth inh	Cruzain noTriton	StopGo reporter	SARS PLpro yeast	Cruzain Triton	Lassa entry inh	Marburg entry inh	NS1 function inh
CCc1ccccc1-n1c(SCC(=O)N2CCCC2)nc2[nH]ncc2c1=O	2%	·	-14%	0%	·	3%[46.1 µM]	19%[46.1 µM]	·
CCCCC/C=C\CC(O)/C=C/c1cccc(CC(O)CCCCO)n1 (stereo not given)	·	-5%&-1%	·	·	-1.9%&0.5%	?	?	-10%
COc1ccc(CCNC(=O)c2c(C)nn(-c3ccc(F)cc3)c2-n2cccc2)cc1OC	·	?	?	·	-5.4%	-14%[46.1 µM]	·	·
O=C1C2CCCN2C(=O)N1CCCCN1CCN(CCO)CC1 (stereo not given)	3%	8%	-14%	-2%	0.3%	6%	-3%	1%
CC(C)(C)C(=O)CN1C2=NCCCN2c2ccccc21	-6%	·	-22%	1%	·	·	·	10%
CCOC(=O)CSC(C)C(=O)Nc1nnc(C(C)C)s1 (stereo not given)	4%	-2%	-22%	-19%	-3.7%	·	·	-13%
COc1ccccc1N1CCN(C(=O)CCc2nnc3ccc(N4CCC(C)CC4)nn23)CC1	13%	·	-21%	5%	·	·	·	-11%
